# HIV Env fusion: blocks HIV Env-driven cell-cell fusion; HeLa-JRFL Env/CEM21 cell fusion, luciferase; inhibition, % at 12.3 µM; actives 1.1% (n = 360,000);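 active = mean replicate inhibition score of at least 50 and every replicate individually at or above 50; inconclusive = only one of the two criteria met; inactive = mean below 50 and not all replicates reaching 50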;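 note: 0% = plate neutral controls and 100% = maraviroc near 300 nM; one replicate is shown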
# Active calls of the source: *; ? = inconclusive; [ ] = dose if it differs, or a comment. An excerpt; count on the stated rates, not on these rows.
smiles	HIV Env fusion
C[C@H](CO)N1C[C@H](C)[C@H](CN(C)S(=O)(=O)c2ccccc2F)OCc2ccccc2-c2c(n(C)c3ccccc23)C1=O	?
CCCCCCCCN1C(=O)[C@@H](CC(=O)N2CCCCC2)C[C@@]2(C(=O)OC)C1=C[C@H](C1CCCC1)O[C@@H]2C	?
COCC#Cc1cnc2c(c1)C(=O)N([C@H](C)CO)C[C@@H](C)[C@H](CN(C)Cc1ccccc1F)O2	16[16.7 µM]
CNC[C@H]1OCCCC[C@@H](C)Oc2ccc(NC(=O)CCC(F)(F)F)cc2C(=O)N([C@@H](C)CO)C[C@@H]1C	-2[16.7 µM]
O=C(C[C@@H]1CC[C@H]2[C@@H](COC[C@@H](O)CN2C(=O)c2ccc(F)cc2)O1)Nc1ccc(-c2ccccc2)cc1	8[16.7 µM]
O=C(N[C@@H]1CC[C@@H](CCn2cc(-c3ccccc3F)nn2)O[C@H]1CO)c1ccc2c(c1)OCO2	-1[16.7 µM]
CN1CCN(C(=O)C[C@H]2CC[C@@H]3[C@@H](COc4ccc(NC(=O)c5cscn5)cc4C(=O)N3C)O2)CC1	-26[16.7 µM]
C[C@H](CO)N1C[C@H](C)[C@@H](CN(C)C(=O)C2CCC2)Oc2cc(Br)ccc2S1(=O)=O	28[16.7 µM]
C[C@H](CO)N1C[C@H](C)[C@@H](CN(C)Cc2ccncc2)Oc2ccc(NC(=O)CCC(F)(F)F)cc2CC1=O	-14[16.7 µM]
CCCNC(=O)N1CC2(C1)CN(C(=O)c1cccnc1)[C@H](CO)c1[nH]c3cc(OC)ccc3c12	3[16.7 µM]
C[C@@H]1CN([C@@H](C)CO)C(=O)c2cccc(NS(C)(=O)=O)c2O[C@@H]1CN(C)Cc1ccc2c(c1)OCO2	10[16.7 µM]
CCC(=O)Nc1ccc2c(c1)OC[C@H](C)N(Cc1nccs1)C[C@@H](C)[C@@H](OC)CN(C)C2=O	-8[16.7 µM]
COc1ccc(-c2c(C(=O)c3ccccc3)[nH]c(N)c2C(=O)NCCc2c[nH]c3ccccc23)cc1	-99
COc1ccccc1CNC(=O)C[C@@H]1CC[C@H]2[C@@H](COC[C@H](O)CN2C(=O)Nc2ccc(F)cc2)O1	-3[16.7 µM]
CCCC(=O)Nc1ccc2c(c1)OC[C@@H](C)N(CCC)C[C@H](C)[C@@H](OC)CN(C)C2=O	4[16.7 µM]
C[C@H]1CN([C@@H](C)CO)C(=O)c2cc(NS(=O)(=O)c3ccccc3)ccc2O[C@@H]1CN(C)C(=O)Nc1ccc(C(F)(F)F)cc1	9[16.7 µM]

# Shown with the structure last: 10 of the compounds above.
HIV Env fusion,SMILES
8[16.7 µM],O=C(C[C@@H]1CC[C@H]2[C@@H](COC[C@@H](O)CN2C(=O)c2ccc(F)cc2)O1)Nc1ccc(-c2ccccc2)cc1
-1[16.7 µM],O=C(N[C@@H]1CC[C@@H](CCn2cc(-c3ccccc3F)nn2)O[C@H]1CO)c1ccc2c(c1)OCO2
-26[16.7 µM],CN1CCN(C(=O)C[C@H]2CC[C@@H]3[C@@H](COc4ccc(NC(=O)c5cscn5)cc4C(=O)N3C)O2)CC1
28[16.7 µM],C[C@H](CO)N1C[C@H](C)[C@@H](CN(C)C(=O)C2CCC2)Oc2cc(Br)ccc2S1(=O)=O
-14[16.7 µM],C[C@H](CO)N1C[C@H](C)[C@@H](CN(C)Cc2ccncc2)Oc2ccc(NC(=O)CCC(F)(F)F)cc2CC1=O
3[16.7 µM],CCCNC(=O)N1CC2(C1)CN(C(=O)c1cccnc1)[C@H](CO)c1[nH]c3cc(OC)ccc3c12
10[16.7 µM],C[C@@H]1CN([C@@H](C)CO)C(=O)c2cccc(NS(C)(=O)=O)c2O[C@@H]1CN(C)Cc1ccc2c(c1)OCO2
-8[16.7 µM],CCC(=O)Nc1ccc2c(c1)OC[C@H](C)N(Cc1nccs1)C[C@@H](C)[C@@H](OC)CN(C)C2=O
-99,COc1ccc(-c2c(C(=O)c3ccccc3)[nH]c(N)c2C(=O)NCCc2c[nH]c3ccccc23)cc1
-3[16.7 µM],COc1ccccc1CNC(=O)C[C@@H]1CC[C@H]2[C@@H](COC[C@H](O)CN2C(=O)Nc2ccc(F)cc2)O1

# (list continues)
smiles	HIV Env fusion
CC(=O)C1=C(C)NC(=S)NC1c1ccccc1 (configuration not stated)	74*
C[C@H](CO)N1C[C@H](C)[C@H](CN(C)C)OCCCC[C@H](C)Oc2ccc(NS(=O)(=O)c3cn(C)cn3)cc2C1=O	10[16.7 µM]
COc1ccc2c3c([nH]c2c1)[C@H](CO)N(C(=O)Nc1ccc(F)cc1)CC31CCN(Cc2cc(-c3ccccc3)on2)CC1	30[16.7 µM]
C[C@@H]1CCCCO[C@H](CN(C)Cc2ccccc2)[C@H](C)CN([C@@H](C)CO)C(=O)c2cc(NC(=O)c3ccncc3)ccc2O1	-6[16.7 µM]
C[C@@H]1CCCCO[C@H](CN(C)C(=O)CCC(F)(F)F)[C@H](C)CN([C@@H](C)CO)C(=O)c2cc(NS(=O)(=O)c3ccc(Cl)cc3)ccc2O1	35[16.7 µM]
C[C@H]1CN([C@@H](C)CO)C(=O)c2cc(NC(=O)CCCN(C)C)ccc2O[C@@H]1CN(C)Cc1ccc(Oc2ccccc2)cc1	-3[16.7 µM]
O=C(C[C@@H]1C[C@@H]2c3cc(NS(=O)(=O)c4ccc(F)cc4)ccc3O[C@@H]2[C@@H](CO)O1)NCCN1CCCCC1	-14[16.7 µM]
Cc1ccc(S(=O)(=O)Nc2ccc3c(c2)C(=O)N([C@@H](C)CO)C[C@H](C)[C@H](CN(C)C(=O)Nc2ccc4c(c2)OCO4)O3)cc1	-12[16.7 µM]
C[C@@H]1CN([C@@H](C)CO)C(=O)CCCn2nncc2CO[C@@H]1CN(C)Cc1cccc(O)c1	-6[16.7 µM]
O=C(C[C@H]1CC[C@@H]2[C@H](COC[C@H](O)CN2C(=O)c2ccncc2)O1)NC1CCC1	18[16.7 µM]
C[C@@H]1CCCCO[C@H](CN(C)C)[C@H](C)CN([C@@H](C)CO)C(=O)c2cc(NS(=O)(=O)c3ccc(Cl)cc3)ccc2O1	4[16.7 µM]
COC(=O)C1=C(C)N(Cc2ccccc2C(F)(F)F)C(=NCC2CC2)NC1c1ccc(F)cc1 (configuration not stated)	-37
COc1ccc2c3c(n(C)c2c1)[C@H](CO)N(C(=O)c1ccccc1)CC31CCN(C(C)=O)CC1	11[16.7 µM]
O=C(O)C[C@H]1C[C@@H]2c3cc(NS(=O)(=O)c4ccc(F)cc4)ccc3O[C@@H]2[C@H](CO)O1	-9[16.7 µM]
COC(=O)C1=C(C)N(Cc2cccc(C(F)(F)F)c2)C(=NCc2cc(OC)c(OC)c(OC)c2)NC1c1ccccc1C(F)(F)F (configuration not stated)	-252
O=C(N[C@@H]1CC[C@@H](CCNS(=O)(=O)Cc2ccccc2)O[C@@H]1CO)c1cnccn1	1[16.7 µM]
COCC(=O)N1C[C@@H](C)[C@@H](OC)CN(C)C(=O)c2ccc(NS(C)(=O)=O)cc2OC[C@@H]1C	-24[16.7 µM]
C[C@H]1CN([C@@H](C)CO)C(=O)Cc2cc(NS(C)(=O)=O)ccc2O[C@H]1CN(C)Cc1ccc(Cl)c(Cl)c1	13[16.7 µM]
CO[C@@H]1CC[C@H]2CCOc3ccc(C#N)cc3C(=O)N(C)[C@H](C)C(=O)N(C)C[C@@H]1O2	8[16.7 µM]
COCCNC(=S)N(C)[C@H]1C[C@H]2c3[nH]c4cccc(-c5ccccc5)c4c3CCN2C(=O)[C@H]1[C@H](C)O	59*
C[C@H](CO)N1C[C@H](C)[C@H](CN(C)C(=O)Nc2ccc3c(c2)OCO3)OCc2ccccc2-c2ccccc2C1=O	-13[16.7 µM]
CCCCc1c(-c2ccccc2OC)ncn1Cc1ccc(F)cc1F	14
COc1ccc(NC(=O)N(C)C[C@H]2OCc3ccccc3-c3c(n(C)c4ccccc34)C(=O)N([C@@H](C)CO)C[C@@H]2C)c(OC)c1	23[16.7 µM]
O=C(C[C@@H]1C[C@@H]2c3cc(NC(=O)C4CCOCC4)ccc3O[C@@H]2[C@H](CO)O1)NCc1cc(F)ccc1F	1[16.7 µM]
COc1cccc(NC(=O)Nc2ccc3c(c2)C(=O)N(C)C[C@@H](OC)[C@@H](C)CN(C)[C@@H](C)CO3)c1	-13[16.7 µM]
COc1cccc(S(=O)(=O)Nc2ccc3c(c2)[C@@H]2C[C@H](CC(=O)N4CCCCC4)O[C@H](CO)[C@@H]2O3)c1	1[16.7 µM]
O=C(C(=O)N1CCN(C(=O)c2cc(C(F)(F)F)cc(C(F)(F)F)c2)CC1)c1cccc(C(F)(F)F)c1	-18
COC(=O)[C@]12C[C@H](CC(=O)N3CCCC3)C(=O)N(Cc3ccc4c(c3)OCO4)C1=C[C@H](COCc1ccccc1)O[C@@H]2C	-22
CO[C@H]1CN(C)C(=O)c2ccc(NC(=O)C3CCOCC3)cc2OC[C@@H](C)N(C)C[C@H]1C	-20[16.7 µM]
CO[C@H]1CN(C)C(=O)c2ccc(NC(=O)c3ccno3)cc2OC[C@@H](C)NC[C@@H]1C	6[16.7 µM]
C[C@@H]1CN([C@H](C)CO)C(=O)CCCn2nncc2CO[C@@H]1CN(C)Cc1ccc2cccnc2c1	-3[16.7 µM]
CO[C@@H]1CN(C)C(=O)c2cc(NC(=O)NC(C)C)ccc2OC[C@@H](C)N(Cc2ccccc2)C[C@@H]1C	-1[16.7 µM]
COCc1[nH]nc2c1C(c1ccc(F)cc1)N(Cc1ccccc1)C2=O (configuration not stated)	77*
COc1ccc2c3c([nH]c2c1)[C@@H](CO)N(C(=O)c1ccccc1)CC31CN(Cc2cccnc2)C1	-4[16.7 µM]
CN1C(=O)c2cc(NC(=O)C3CCOCC3)ccc2OC[C@@H]2O[C@H](CC(=O)NCCc3ccncc3)CC[C@H]21	-3[16.7 µM]
C/C=C/c1ccc2c(c1)O[C@@H](CN(C)C(=O)Cc1cccnc1)[C@H](C)CN([C@H](C)CO)S2(=O)=O	-6[16.7 µM]
C[C@@H]1CCCCO[C@@H](CN(C)Cc2ccccc2)[C@H](C)CN([C@@H](C)CO)C(=O)c2cc(NC(=O)c3ccncc3)ccc2O1	-3[16.7 µM]
CN1C(=O)c2cc(NC(=O)c3ccc(F)c(F)c3)ccc2OC[C@@H]2O[C@H](CC(=O)N[C@H]3CCN(Cc4ccccc4)C3)CC[C@H]21	-4[16.7 µM]
C[C@H]1CN([C@@H](C)CO)C(=O)Cc2cc(NS(=O)(=O)c3ccc(Cl)cc3)ccc2O[C@@H]1CN(C)Cc1ccc(C(=O)O)cc1	-38[16.7 µM]
C[C@@H]1CN([C@H](C)CO)C(=O)c2c(c3ccccc3n2C)-c2ccccc2CO[C@@H]1CN(C)C(=O)CCC(F)(F)F	-24[16.7 µM]
COc1ccc(S(=O)(=O)N(C)C[C@H]2Oc3ccc(NS(=O)(=O)c4ccc(F)cc4)cc3CC(=O)N([C@H](C)CO)C[C@@H]2C)cc1	3[16.7 µM]
O=C(NCC1CC1)[C@H]1[C@H](CO)[C@H]2Cn3c(cccc3=O)[C@H]2N1Cc1cncnc1	9[16.7 µM]
Cc1cccc(S(=O)(=O)N[C@H]2CC[C@H](CCNC(=O)c3cnccn3)O[C@H]2CO)c1	-11[16.7 µM]
CCCCOCCCNC(=O)C[C@H]1C[C@@]2(C(=O)OC)C(=C[C@H](C(C)(C)C)O[C@@H]2C)N(CCC2=CCCCC2)C1=O	66*
O=C(C[C@H]1C[C@H]2c3cc(NC(=O)c4ccc5c(c4)OCO5)ccc3O[C@H]2[C@@H](CO)O1)NC1CCCCC1	-6[16.7 µM]
O=C(C[C@@H]1C[C@@H]2c3cc(NC(=O)Cc4ccncc4)ccc3O[C@@H]2[C@H](CO)O1)NCCc1ccccc1	5[16.7 µM]
CCCn1cc(CCC(=O)Nc2ccc(Oc3cccnc3)cc2)c2ccccc21	4
C[C@H](NC(=O)[C@H]1[C@H](CO)[C@H]2Cn3c(ccc(-c4ccncc4)c3=O)[C@H]2N1C)c1ccccc1	-7[16.7 µM]
CCC(=O)N1C[C@@H](C)[C@H](OC)CN(C)C(=O)c2cc(NC(=O)c3ccno3)ccc2OC[C@@H]1C	5[16.7 µM]
Cc1nn(C)cc1NC(=O)C[C@@H]1CC[C@@H]2[C@H](COc3ccc(NC(=O)c4cccc(F)c4)cc3C(=O)N2C)O1	17[16.7 µM]
O=C(CN1CCOCC1)N[C@@H]1CC[C@H](CCNS(=O)(=O)c2ccccc2F)O[C@@H]1CO	11[16.7 µM]
C[C@H]1CN([C@@H](C)CO)C(=O)c2cc(NS(=O)(=O)c3ccccc3)ccc2O[C@H]1CN(C)C(=O)Nc1ccc(C(F)(F)F)cc1	-30[16.7 µM]
COC(=O)[C@]12C[C@H](CC(=O)N3CCCC3)C(=O)N(CCC3=CCCCC3)C1=C[C@H](C(C)(C)C)O[C@@H]2C	20
O=C(NC[C@@H]1[C@H](c2ccccc2)[C@H](CO)N1CC1CCCC1)C1CC1	-25[16.7 µM]
C#CCN(C[C@H]1[C@H](OC(=O)NCCCCCC)[C@H](OC(=O)NCCCCCC)CN(C(=O)OC(C)C)N1C(=O)OC(C)C)S(=O)(=O)c1ccc(C)cc1	31
CO[C@@H]1CN(C)C(=O)c2ccc(NC(=O)c3cc(C)on3)cc2OC[C@@H](C)N(C)C[C@@H]1C	-11[16.7 µM]
Fc1ccc2nc(-c3ccc(CN4CCC(c5nc6ccccc6[nH]5)CC4)cc3)c(-c3ccccc3)nc2c1	10
CCCC(=O)Nc1ccc2c(c1)OC[C@@H](C)N(Cc1ccccn1)C[C@@H](C)[C@@H](OC)CN(C)C2=O	-17[16.7 µM]
CCC(=O)N1CCC2(CC1)CN(C(=O)CN1CCOCC1)[C@H](CO)c1c2c2ccc(OC)cc2n1C	-15[16.7 µM]

# Bioassay records as filed in PubChem BioAssay.
